Compound activity (PubChem BioAssay)
AID504770: E. coli YBA685 growth inhibition, screen for V. cholerae RctB inhibitors; E. coli YBA685 rctB-dependent plasmid, OD600 growth, 3 h; hits give low values; z-score (no concentration beside the values); hit rate 0.27% among 130,000; AID 504770;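 active means z-score under -2 on both plates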;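 further: wells of about 30 µL received 100 nL stock; score is relative to mean and SD of the test wells; the first replicate is given; strong numbers were not always called active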
Ba CapD inh: blocks the Bacillus anthracis CapD enzyme; purified CapD enzyme, fluorescence intensity read-out; hits give low values; some hits fall short of the stated cut; z-score (concentration not given with the values); hit rate 0.23% among 140,000;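 active means z-score under -4 in either of two replicates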;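 further: stock transfer was 100 nL into about 40 µL; score is relative to mean and spread of the plate; one replicate is shown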
* = called active by the depositor; / = no result given.

SMILES	AID504770	Ba CapD inh
Cc1oc(-c2ccc(C(=O)NCc3ccccn3)cc2)nc1Cn1cccn1	0.2	112
Cc1nc2ccccc2c(=O)n1/N=C/c1ccc2c(c1)OCO2	-0.1	/
CCCOc1ccccc1N	-1.4	/
Cc1cc(C)c(C)c(S(=O)(=O)N2CCSCC2)c1C	-1.4	0.27
Cc1c(C(=O)Nc2ccccc2)sc2ncn(CC(=O)N3CCOCC3)c(=O)c12	-1.7	/
Cc1nn(CC(O)c2ccccc2)c(C)c1Br (stereo not given)	0.2	0.035
CCC(=O)Nc1cc(C(=O)OCC(=O)c2cccs2)ccc1C	-0.1	-0.095
CC1CCC(=O)C(C(CC(=O)c2ccccc2)c2ccc3c(c2)OCO3)C1 (stereo not given)	0.1	-0.44
Cc1ccccc1CCOC(=O)N1CCN(c2ccccc2Cl)CC1	/	-0.08
CC(=O)c1c(C)oc2ccc(N(C(=O)c3ccc(Cl)cc3)S(=O)(=O)c3cccc([N+](=O)[O-])c3)cc12	/	0.31
O=C(NCc1ccccc1)C1C2CC3OC(=O)C1C3C2 (stereo not given)	-0.9	/
c1ccc(-c2nc(-c3ccco3)cs2)nc1	0	/
O=c1[nH]c(O)c(C=NCCCn2ccnc2)c(=O)[nH]1	2.1	/
CCOc1cc(/C=C2/C(=O)NC(=S)N(c3ccc(Br)cc3C)C2=O)ccc1O	/	-0.46
Cc1nc(SCc2nc3cc([N+](=O)[O-])c([N+](=O)[O-])cc3[nH]2)c(C#N)c(C)c1Cl	/	-0.095
CCOC(=O)C1=C(C(=O)OCC)SC(=C2C(=S)C(C)(C)N(C(=O)C(C)C)c3ccccc32)S1	/	-0.29
COc1ccc(C(=O)NCCSc2ccc(Cl)cc2)cc1OC	/	-0.065
COC(=O)C(C)(C)NC(=O)c1cccs1	-0.9	0.18
COc1ccc(C(=O)COC(=O)C(Cc2c[nH]c3ccccc23)NC(=O)C23CC4CC(CC(C4)C2)C3)cc1 (stereo not given)	/	0.33
CCCNC(=O)N(C)c1nncnc1C(=O)NC	-0.8	-0.15
O=C(CC1OC(=O)c2ccccc21)c1ccc2ccccc2c1 (stereo not given)	1.3	-0.23
CC(=O)c1oc2ccc3c(C)cc(=O)oc3c2c1-c1ccccc1	/	-0.03
Cc1cccc(C)c1N1C(=O)CC(N2CCSCC2)C1=O (stereo not given)	-1.6	-0.57
COCC1=C(C#N)C2(C(=O)Nc3ccccc32)C(C(=O)OC)=C(N)O1 (stereo not given)	/	-1.2
COc1ccc2c(c1)c(=O)c1ccccc1n2CC(=O)Nc1cc(Cl)ccc1OC	/	-0.33
SMILES	AID504770	Ba CapD inh
Nc1c(C(=O)CCC(=O)O)oc2ccc(Br)cc12	-0.3	4.5
COc1cc2c(cc1OC)C(C)N(S(=O)(=O)c1ccccc1)CC2 (stereo not given)	-0.65	-0.16
COc1cccc(N2C(N)=NC(N)=NC2(C)C)c1	-1	0.5
COc1cccc(OCCNC(=O)Cc2cccc3ccccc23)c1	1	0.53
CCCNC(=O)c1ccc(CS(=O)c2ccc(Br)cc2)o1 (stereo not given)	-0.3	0.3
CCc1ccc(C=NN2CCN(Cc3ccccc3)CC2)cc1	1.9	-0.45
Cc1ccc(S(=O)(=O)Nc2ccc(F)cc2NS(=O)(=O)c2ccc(C)cc2)cc1	/	-0.38
O=C(OCc1cccc(COC(=O)c2ccccc2)c1F)c1ccccc1	-0.5	0.76
CCOC(=O)C1(C)/C(=N\Nc2ccc(S(N)(=O)=O)cc2)C(=O)C(=O)N1c1ccccc1 (stereo not given)	/	-0.27
CC1=C(C(=O)Nc2cc(-c3cccc(F)c3)[nH]n2)C2(CCCCC2)OC1=O	2.5	-1.4
CCOC(=O)C1CCN(Cc2csc(-c3cccs3)n2)CC1	-0.4	6.2
COc1ccc(C(=O)c2cc3c(CO)cnc(C)c3oc2=O)cc1	0.1	-0.76
CCOC(=O)C1=C(C)N(CCOC)C(=O)/C1=C\c1ccc(N(C)C)cc1	0.5	-0.31
O=C(O)/C=C\C(=O)N1CCc2ccccc2C1	/	-1
O=S(=O)(NCc1ccc2c(c1)OCO2)c1cc(Cl)sc1Cl	-0.15	0.59
CCOc1ccsc1C(=O)NNC(=O)OCCc1ccc(F)cc1	/	0.46
O=C(COC(=O)c1cccs1)NCc1cccs1	-0.45	/
Cc1cccc(C2(c3cccc(C)c3)CC2C(=O)Nc2cccc(Cl)c2C)c1 (stereo not given)	/	-0.34
Oc1ccccc1C1=Nc2ccccc2N=C(c2ccc(Cl)cc2)C1	-0.4	-0.23
CC(C(=O)Nc1ccc2c(c1)OCO2)N(C)CC(=O)Nc1ccccc1Cl (stereo not given)	-0.5	/
O=C(CSc1ncn[nH]1)Nc1ccc(OCc2ccccc2)cc1	-0.3	/
O=C(Nc1ccccc1Cc1ccccc1)c1ccc(Br)o1	-0.65	/
OC(CCCN1CCCCC1)(c1ccccc1)c1ccccc1	/	-0.12
CCOc1ccc2cc(Br)ccc2c1	-0.6	0.5
Cn1c(=O)c2c(SCC(=O)Nc3ccccc3C(F)(F)F)ccnc2n(C)c1=O	-0.1	/

The list goes on, starting with the last 2 of the part before.
SMILES	AID504770	Ba CapD inh
CCOc1ccc2cc(Br)ccc2c1	-0.6	0.5
Cn1c(=O)c2c(SCC(=O)Nc3ccccc3C(F)(F)F)ccnc2n(C)c1=O	-0.1	/
COC(=O)c1ccncc1C(=O)O	/	0.33
Cn1c2c(c(=O)n(C)c1=O)C(c1ccc(Cl)cc1)C(C#N)=C(N)O2 (stereo not given)	0.7	2
COC(CNS(=O)(=O)c1ccc(S(=O)(=O)NC2CC2)cc1)OC	-0.55	/
COc1ccc(-n2c(N)c(C(=O)NCCN3CCOCC3)c3nc4ccccc4nc32)cc1OC	-0.65	/
Cc1cccc(C)c1NC(=O)CN(C)C(C)C(=O)N1c2ccccc2CC1C (stereo not given)	-0.35	/
COc1ccc(C(=O)Nc2nc(-c3ccc(C)cc3)cs2)c(OC)c1	-0.35	0.9
COC(=O)C(NC(=O)c1ccccc1)(Nc1sc2c(c1C#N)CCC(C(C)(C)C)C2)C(F)(F)F (stereo not given)	/	-0.23
O=c1c(-c2ccc3c(c2)OCCO3)coc2cc(O)ccc12	0.3	0.48
Cc1sc2nc(N)c(C#N)c(C)c2c1C	-0.1	5.6
Cc1ccc(N2C(=O)C(N3C(=O)c4ccc([N+](=O)[O-])cc4C3=O)C2c2cccs2)cc1F (stereo not given)	/	-0.78
COc1cc(C2C(C(=O)OC(C)C)=C(C)NC3=C2C(=O)CC(c2cccs2)C3)cc(OC)c1OC (stereo not given)	/	14
Cc1[nH]n(C)c(=O)c1C(=O)c1c(-c2c(Cl)cccc2Cl)noc1C	/	0.21
CCN(CC)S(=O)(=O)c1ccc2c(c1)nc(CCC(=O)OCC#N)n2C	1.1	/
Cc1ccc(C)c(-n2c(=O)c3ccccc3n3c(SC(C)C(N)=O)nnc23)c1 (stereo not given)	-0.1	/
c1ccc(-n2ncnc2-c2csc(-c3ccncc3)n2)cc1	-0.25	0.68
COC(=O)c1cc2oc3ccccc3c2n1CC(=O)Nc1ccc(F)cc1F	0.7	12
CCc1cccc(C)c1Nc1c(-c2ccccc2O)nc2ncccn12	0.45	-0.41
CCn1c(SCC(=O)c2ccc(Br)cc2)nnc1-c1ccncc1	0.15	/
CCOC(=O)c1c(C)n(-c2ccccc2)c2c1cc(OC(=O)c1cc(C)cc(C)c1)c1ccccc12	/	-0.065
CC(C)C(=O)N1N=C(c2ccc(NS(C)(=O)=O)cc2)CC1c1ccccc1 (stereo not given)	-1.1	-0.49
CC(C)Oc1nnnn1-c1ccccc1	-0.7	-0.24
CCSc1nnc(-c2cccc(NC(C)=O)c2)o1	0	/
CC(C)(C)OC(=O)Oc1ccc(/C=N/NC(=O)c2ccc(S(N)(=O)=O)cc2)cc1	/	0.28
CC(C)(C)c1ccc(Oc2ccc(C(F)(F)F)cc2[N+](=O)[O-])c(Cl)c1	/	0.17
Cc1ccc2onc(CNC(=O)Nc3ccccc3N3CCN(C)CC3)c2c1	-0.55	0.02
SMILES	AID504770	Ba CapD inh
Nc1ccc(S(=O)(=O)Nc2ccc(Cl)nn2)cc1	-0.35	-0.15
Cc1ccc(-c2noc(CCC(=O)NC3CCCc4ccccc43)n2)cc1 (stereo not given)	-0.15	-0.23
Cc1ccc(C(=O)NCc2ccco2)c(C)c1	-1.1	0.26
CCN(C(=O)Cn1c(=O)oc2cc(S(=O)(=O)N3CCCCCC3)ccc21)c1ccccc1	-0.05	-0.38
CS(=O)(=O)c1ccc(Cl)c(NC(=O)c2ccc(C#N)cc2)c1	-0.3	/
CC(=O)NCc1nnc2c3ccccc3c(-c3ccccc3)nn12	-0.9	2.7
O=C1c2ccc(Br)cc2C(=O)N1c1cc(Cl)ccc1O	-0.55	0.17
CC(=O)n1c(C)c(-c2ccccc2)c2cc(Cl)ccc21	-0.85	46
O=C(CSc1ccc(Br)cc1)c1cc2ccccc2o1	-0.15	0.55
CC1CN(C(=S)NCCc2ccccc2)CC(C)O1 (stereo not given)	0	-0.21
Cc1ccc(CNCC(O)(c2ccc(Cl)cc2)c2ccc(Cl)cc2)cc1	/	-0.38
CC(=O)Nn1c(C)nc2ccccc2c1=O	-1.9	/
CCCc1cc2c(=O)c(-c3ccc(C(=O)OCC)o3)coc2cc1O	-0.2	2
CN(C)c1ccc(C(O)c2cccs2)cc1 (stereo not given)	0.75	-0.33
O=C(/C=C/c1ccco1)OC(C(=O)c1ccccc1)C(=O)c1ccccc1	-0.8	/
CC(C)(C)C1CCc2nc(N)sc2C1 (stereo not given)	-0.7	-0.42
CC(=O)Nc1ccc2c(c1)C1C=CCC1C(c1ccc(Cl)cc1Cl)N2 (stereo not given)	/	-0.025
NC(=O)c1ccc(N=Cc2c(O)n(Cc3ccco3)c(=O)[nH]c2=O)cc1	0.15	/
Cc1cc(C)cc(Nc2ccc(C(=O)O)cc2N)c1	-0.95	76
NC(=O)CSc1ncnc2ccccc12	-0.55	-0.64
O=C1NC(=O)C(C2(O)C(=O)Nc3c(Cl)cc(Cl)cc32)C(=O)N1 (stereo not given)	-0.8	/
CN1CCN(C(=O)CCC(=O)N2CCc3cc(S(=O)(=O)N(C)C)ccc32)CC1	/	-0.25
c1csc(-c2cn3c(n2)CCC3)c1	-1.1	-0.48
Cn1c(=O)n(C)c2cc(S(=O)(=O)NCCC(=O)O)ccc21	-1.3	0.21
O=C(CSc1ccc(Cl)cc1)NC(=O)NC1CCCC1	-0.95	/
SMILES	AID504770	Ba CapD inh
COC(=O)CC1C(=O)NCCN1c1ncnc2sccc12 (stereo not given)	1.2	/
N#CC(C(=O)Nc1ccccc1Cl)=C1CCCC1	-0.15	0.035
COc1ccc(CCNC(=O)c2c[nH]c3ccc(S(=O)(=O)N4CCc5ccccc54)cc3c2=O)cc1OC	/	0.69
CCC1CC(c2nc3ccccc3s2)=C(N)O1 (stereo not given)	1.1	/
Cc1ccc(S(=O)(=O)N2CCc3ccccc3C2CC(=O)OCC(N)=O)cc1 (stereo not given)	-0.45	/
CC(C)(C)C(=O)C[n+]1ccccc1	0.95	0.26
COC(=O)CC(NC(=O)c1ccco1)c1ccc(Br)cc1 (stereo not given)	/	0.005
Fc1ccc(N2CCN(CC3CCCCC3)CC2)cc1	1.9	-0.4
CCOC(=O)c1c[nH]c2c(F)ccc(F)c2c1=O	/	2.8
Cn1c(SCCC#N)nnc1-c1cccc(Cl)c1	-0.65	1.3
COc1ccc(CN2CCN(CCOC(=O)N3CCN(c4cc(C(F)(F)F)nc5cc(C(C)(C)C)nn45)CC3)CC2)cc1F	/	12
COCCNC(=O)c1ccc2c(=O)n(Cc3ccc(Cl)cc3)c(SCc3cc(F)cc4c3OCOC4)nc2c1	/	0.62
CCOCCc1nnc(NC(=O)c2cccs2)s1	-0.35	-0.29
O=C(c1ccc2c(=O)n(CC3CCCO3)c(=S)[nH]c2c1)N1CCN(Cc2ccc3c(c2)OCO3)CC1 (stereo not given)	/	-0.67
O=C(NCC(c1cccs1)N1CCOCC1)c1ccc(NS(=O)(=O)c2cccs2)cc1 (stereo not given)	0.85	/
COc1ccc(S(=O)(=O)N(Cc2cc3c(C)cc(C)cc3[nH]c2=O)CC2COCCO2)cc1 (stereo not given)	-0.2	/
C=CCn1c(C)cc(C(=O)CSc2nc(C)cc(C(F)(F)F)c2C#N)c1C	0.1	/
Cc1ccc(NC(=O)CN2C(=O)S/C(=C\c3cccc(O)c3)C2=O)cc1	0.95	-0.02
COc1ccc(C(=O)NCC(=O)N2CCN(c3ccc(Cl)cc3)CC2)cc1	/	-0.41

Entries listed so far that have a furan ring, fused or not (13):
SMILES	AID504770	Ba CapD inh
CC(=O)c1c(C)oc2ccc(N(C(=O)c3ccc(Cl)cc3)S(=O)(=O)c3cccc([N+](=O)[O-])c3)cc12	/	0.31
c1ccc(-c2nc(-c3ccco3)cs2)nc1	0	/
CC(=O)c1oc2ccc3c(C)cc(=O)oc3c2c1-c1ccccc1	/	-0.03
Nc1c(C(=O)CCC(=O)O)oc2ccc(Br)cc12	-0.3	4.5
CCCNC(=O)c1ccc(CS(=O)c2ccc(Br)cc2)o1 (stereo not given)	-0.3	0.3
O=C(Nc1ccccc1Cc1ccccc1)c1ccc(Br)o1	-0.65	/
COC(=O)c1cc2oc3ccccc3c2n1CC(=O)Nc1ccc(F)cc1F	0.7	12
Cc1ccc(C(=O)NCc2ccco2)c(C)c1	-1.1	0.26
O=C(CSc1ccc(Br)cc1)c1cc2ccccc2o1	-0.15	0.55
CCCc1cc2c(=O)c(-c3ccc(C(=O)OCC)o3)coc2cc1O	-0.2	2
O=C(/C=C/c1ccco1)OC(C(=O)c1ccccc1)C(=O)c1ccccc1	-0.8	/
NC(=O)c1ccc(N=Cc2c(O)n(Cc3ccco3)c(=O)[nH]c2=O)cc1	0.15	/
COC(=O)CC(NC(=O)c1ccco1)c1ccc(Br)cc1 (stereo not given)	/	0.005
